MbtI inh = MbtI salicylate synthase inhibitors, primary screen, biochemical, fluorescence intensity; purified MbtI enzyme, fluorescence intensity read-out; inhibition, %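 (about 17 µg/mL by stock and volumes)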; hit rate 0.89% among 100,000; AID 493033, 2011;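 active = above 50% in both replicates, above 80% if mildly self-fluorescent; inactive = the rest, strongly fluorescent compounds included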;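 note: 0% = mean of negative and 100% = mean of positive controls; one replicate is shown; some compounds called inactive have numbers as strong as hits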
Target sequence (P9WFX0 whole entry, looked up): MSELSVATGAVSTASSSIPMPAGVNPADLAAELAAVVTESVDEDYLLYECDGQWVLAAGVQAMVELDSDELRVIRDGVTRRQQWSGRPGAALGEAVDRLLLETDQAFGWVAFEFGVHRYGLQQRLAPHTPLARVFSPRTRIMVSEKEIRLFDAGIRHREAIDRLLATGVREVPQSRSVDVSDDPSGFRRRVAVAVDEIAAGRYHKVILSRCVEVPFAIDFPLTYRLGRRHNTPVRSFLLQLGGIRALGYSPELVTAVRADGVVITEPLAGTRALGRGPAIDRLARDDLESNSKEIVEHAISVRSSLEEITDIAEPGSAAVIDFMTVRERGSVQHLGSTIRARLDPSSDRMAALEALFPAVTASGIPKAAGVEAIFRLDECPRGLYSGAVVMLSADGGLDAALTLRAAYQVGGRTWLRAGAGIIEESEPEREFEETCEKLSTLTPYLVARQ
Polio RdRp inh = poliovirus RdRp elongation inhibitors, primary screen, biochemical, fluorescence polarization, total intensity. Genome polyprotein (Poliovirus type 1 (strain Mahoney)), P03300. poliovirus polymerase elongation; active compounds read low. % elongation, % (compound at 16.7 µg/mL). hit rate 0.66% among 150,000; in the data active = % elongation below about 90%; note: some results filed as inactive read as strong as hits
MenB inh = M. tuberculosis MenB inhibitors, primary screen, biochemical, absorbance; 1,4-dihydroxy-2-naphthoyl-CoA synthase (Mycobacterium tuberculosis (strain ATCC 25618 / …; hit rate 0.43% among 100,000; inhibition, %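 (about 12 µg/mL by stock and volumes)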; MenB enzyme assay, absorbance read-out; some hits fall short of the stated cut; AID 540299, 2011;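 active = mean of two replicates above 30%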;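 note: 0% = no compound and 100% = wells with inactive enzyme; the first replicate is given; strong numbers were not always called active; inactives centre near -10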
Target sequence (P9WNP5 whole entry, looked up): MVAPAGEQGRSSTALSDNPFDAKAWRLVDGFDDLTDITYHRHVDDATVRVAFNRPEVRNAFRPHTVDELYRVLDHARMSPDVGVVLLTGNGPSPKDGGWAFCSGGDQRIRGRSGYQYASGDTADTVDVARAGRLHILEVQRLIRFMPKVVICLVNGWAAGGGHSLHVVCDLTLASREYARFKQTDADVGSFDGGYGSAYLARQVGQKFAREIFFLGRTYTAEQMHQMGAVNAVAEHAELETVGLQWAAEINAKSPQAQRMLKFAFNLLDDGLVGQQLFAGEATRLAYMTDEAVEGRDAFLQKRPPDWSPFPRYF
Polio RdRp inh intensity = second read-out of Polio RdRp inh, no call of its own (marks repeat the call); % elongation; measured here: total intensity read-out; formula for this scale not given here;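 total fluorescence in place of polarization; lower means less elongation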
An asterisk follows results filed as active; i = inactive; x = not tested or not shown; & = joins results of further samples. Hits appear at their usual frequency, and some 1.7% of all compounds hit somewhere here.

Results follow in this order: Polio RdRp inh intensity	MenB inh	Polio RdRp inh	MbtI inh
- COc1ccccc1OCCCn1cc(/C=C2/C(=N)N3C=CSC3=NC2=O)c2ccccc21
  106	-11	103	2
- CN(C)CCN1C(=O)C(O)=C(C(=O)c2ccco2)C1c1ccco1 (configuration not stated)
  102	-3	102	-6
- Cc1nc(CC(=O)N/N=C/c2ccc(OCC(=O)O)cc2)cs1
  101	-41	103	10
- CCOC(=O)C1=C(N)Oc2cc(O)ccc2C12C(=O)N1c3c(cccc32)C(C)CC1(C)C (configuration not stated)
  100	7	100	3
- CC1SC2(CCCCC2)NC1=O (configuration not stated)
  100	-42	98	-16
- O=c1cccc2n1CC1CC2CN(Cc2nnc(-c3ccc4c(c3)OCO4)o2)C1 (configuration not stated)
  105	-2	99	6
- Cc1ccc(-n2c3c(cc(C(=O)NC4CCSC4=O)c2=O)C(=O)CCC3)cc1 (configuration not stated)
  107	-11	101	40
- O=c1/c(=C/c2cccnc2)sc2n1CN(c1ccccc1)CN=2
  107	3	103	-12
- CC1CN(Cc2ccc(C#N)cc2Cl)CC(C)O1 (configuration not stated)
  106	-3	98	x
- CSc1ncc(C(=O)N2CCN(Cc3ccccc3)CC2)c(-c2ccccc2)n1
  98	3	102	5
- CCCCC1CCC(C(=O)Nc2noc3ccccc23)CC1 (configuration not stated)
  103	-2	103	-4
- CCn1c(SC(=O)NC2CCCCC2)nnc1-c1cccs1
  85	17	97	-19
- N/C(CC(=O)Nc1ccc(Cl)cc1)=N/O
  106	x	103	-2
- O=C(/C=C/c1ccccc1)NCCCN1CCOCC1
  106	x	105	-6
- O=C1CCC(C(=O)OC2CCOC2=O)=NN1 (configuration not stated)
  103	-5	99	-8
- COCCN(Cc1ccccc1)C(=O)c1ccc2c(c1)NC(=O)CS2
  96	-48	93	63*
- CC1(C)CC2(C=CC(=O)CC2)CCO1 (configuration not stated)
  99	-21	103	-12
- O=c1[nH]cnc2cc(F)ccc12
  105	5	102	17
- Cc1nn(-c2cccc(Cl)c2)c2c1C(=O)C1C(=O)CCCC1N2 (configuration not stated)
  105	x	102	-14
- CN(C)c1nc(-c2ccccc2)[n+](C)s1
  105	-25	102	32

One compound at a time (already shown). Values in the order: Polio RdRp inh intensity	MenB inh	Polio RdRp inh	MbtI inh
`O=C(/C=C/c1ccccc1)NCCCN1CCOCC1` as listed: 106	x	105	-6
`CCCCC1CCC(C(=O)Nc2noc3ccccc23)CC1` (configuration not stated) as listed: 103	-2	103	-4
`Cc1nn(-c2cccc(Cl)c2)c2c1C(=O)C1C(=O)CCCC1N2` (configuration not stated) as listed: 105	x	102	-14

Other records follow.
Results follow in this order: Polio RdRp inh intensity	MenB inh	Polio RdRp inh	MbtI inh
- Cc1nn(Cc2ccccc2)c(C)c1NC(=O)c1noc2c1CCc1ccccc1-2
  102	-25	101	1
- Cc1nccc(-c2cccc(NC(=O)Nc3ccccc3)c2)n1
  110	-6	106	-25
- CC(OC(=O)c1ccccn1)C(=O)N1CCc2ccccc21 (configuration not stated)
  101	1	106	-5
- Cc1ccc(C)n1CCN1CCNCC1
  100	x	103	0
- COc1ccc2cc(CCNC(=O)COc3ccc4ccccc4c3)c(=O)[nH]c2c1
  102	-10	101	8
- O=C(CSc1nc2c(c(=O)n1Cc1ccco1)C1(CCCC1)Cc1ccccc1-2)c1cccs1
  100	17	101	18
- COCC(C)n1c(SCc2nnc(-c3ccccc3)o2)nc2ccccc2c1=O (configuration not stated)
  98	-12	104	8
- CC1(C)COC(c2cccc(C#N)c2)OC1
  100	12	100	-3
- COC(=O)c1c(C)[nH]c(C(=O)COC(=O)C23CC4CC(CC(NC(C)=O)(C4)C2)C3)c1C
  105	-17	103	16
- CN1CCc2cccc3c2C1Cc1ccc(O)c(O)c1-3 (configuration not stated)
  102	19	100	166
- CC1C2CC(C(S(=O)(=O)N3CCOCC3)/C2=N/O)C1(C)C (configuration not stated)
  110	-3	101	x
- COc1ccc(CC2(C)NC(=O)NC2=O)cc1OC (configuration not stated)
  108	-2	106	-12
- COc1ccc(N=Cc2ccc[nH]2)cc1
  103	-7	99	-5
- CC1(C)CC(=O)c2c(C#N)sc(C#N)c2C1
  106	9	101	12
- N#CCc1ccc(F)cc1
  106	-16	104	6
- O=C(Cn1c(=O)c2cccn2c2ccccc21)N1CCCCC1
  105	7	101	10
- O=C(NCCc1ccccc1)C1CCCN1S(=O)(=O)c1cccc2nsnc12 (configuration not stated)
  105	-22	102	-3
- CSc1oc(-c2ccccc2)nc1S(=O)(=O)c1ccccc1
  108	-12	103	x
- CN(Cc1ccccc1)C1CCNCC1
  108	11	101	-9
- CCCCCCCCCCCCC[N+](C)(C)Cc1ccccc1
  103	2	101	-6

Just MenB inh and Polio RdRp inh intensity, for three of the compounds above:
SMILES	MenB inh	Polio RdRp inh intensity
COC(=O)c1c(C)[nH]c(C(=O)COC(=O)C23CC4CC(CC(NC(C)=O)(C4)C2)C3)c1C	-17	105
CN1CCc2cccc3c2C1Cc1ccc(O)c(O)c1-3 (configuration not stated)	19	102
CC1C2CC(C(S(=O)(=O)N3CCOCC3)/C2=N/O)C1(C)C (configuration not stated)	-3	110

(continued)
Results follow in this order: Polio RdRp inh intensity	MenB inh	Polio RdRp inh	MbtI inh
- COc1ccc(C2C3C(=O)N(C(C)C)C(=O)C3ON2c2ccc(Cl)cc2)cc1 (configuration not stated)
  107	-1	103	-12
- COc1cc(/C=C/C(=O)O)ccc1OCc1c(C)noc1C
  96	-4	102	-37
- CCCCSc1nnc(C)c(=O)[nH]1
  101	9	101	17
- Cc1nn(C(=O)COc2ccc(Cl)cc2Cl)c(N)c1-c1ccccc1
  111	-13	103	x
- Cc1ccc(-c2c(C(=O)NCCc3cccc(C)c3)oc(=O)c3ccccc23)cc1
  107	-32	104	-5
- C=CCNC(=O)CN1N=C(c2ccccc2)CCC1=O
  103	7	105	5
- O=C(C1=CCN(S(=O)(=O)c2ccccc2)CC1)N1CCCCC1
  103	-9	102	-5
- O=C1COc2ccc(C(=O)C[n+]3cccc([O-])c3)cc2N1
  173	-32	138	8
- NCCc1ccc(Cl)cc1
  109	6	99	-11
- CC(C)(C)CC(=O)NCc1cccs1
  102	-11	102	-8
- COc1ccc2c(c1)c(CC(=O)N1CCOCC1)c(C)n2C(=O)c1ccc(Cl)cc1
  101&101	-6	103&101	-10
- OC1C2CC3CC(C2)CC1C3 (configuration not stated)
  103	9	100	13
- O=C(NCCN1CCCCC1)c1ccco1
  106	-1	104	x
- Cc1cc(C)nc(N/C(=N/S(=O)(=O)c2ccc(Br)cc2)N2CCC(C)CC2)n1
  106	-16	103	-6
- Cc1ccccc1NC(=O)OC1CCCCC1
  104	x	102	-9
- CCOC(=O)c1c(NC=O)sc2c1CCCC2
  102	-65	101	-46
- COC(=O)c1c(F)c(F)c(Oc2ccc(Cl)cc2)c(F)c1N1CCCCC1
  107	-18	102	-5
- COC(=O)c1sc(S(=O)(=O)N2CCN(c3ccccc3OC)CC2)c(C(=O)OC)c1C
  106	-29	100	-113
- O=C(Cn1cnc2c(nnn2-c2cccc(Cl)c2)c1=O)OCc1ccccc1
  105	-17	101	7
- COC(=O)c1ccccc1NC(=O)Nc1ccc(N2CCOCC2)c2nonc12
  176	-54	75	3

New compounds follow
Results follow in this order: Polio RdRp inh intensity	MenB inh	Polio RdRp inh	MbtI inh
- Cc1nc2ccccc2c(=O)n1CC(=O)NC(N)=O
  106	-5	102	13
- CC(C)NC(=O)c1ccc2c(Cl)c3c(nc2c1)CCCC3
  108	-11	103	-8
- CCCCCCCCC#CCC#CCC#CCCCC(=O)O
  103&103	1	103&103	-19
- Cc1ccc(C)n1CCN1CCN(C(=O)CC#N)CC1
  108	x	101	-9
- COc1ccc(NC(=O)CCC(=O)c2ccc(OC)cc2)cc1
  105	-5	98	-5
- COc1ccc(/C=C/C(=O)Nc2nc(N)n(-c3ccccc3)n2)cc1
  101	-31	102	-12
- Nc1ccc2nc(CCCc3nc4ccc(N)cc4s3)sc2c1
  110	-14	106	x
- COC(=O)/C(=C/c1ccc(F)cc1)NC(C)=O
  101	-20	102	7
- Cc1cc(C)n2nc(C(=O)N(C)C(c3ccccc3)c3ccccc3)nc2n1
  102	-13	104	-31
- CCn1c(=O)c2sccc2n2c(CCC(=O)NCc3ccccc3)nnc12
  105	17	102	4
- COC1=NS(=O)(=O)c2ccccc21
  100	-1	102	-15
- N#Cc1c(NC(=O)c2ccc(Cn3cc(Br)cn3)o2)sc2c1CCCCC2
  102	-22	98	138
- O=C(O)C1Cc2c([nH]c3ccccc23)C(Cc2ccccc2)N1 (configuration not stated)
  108	-53	101	32
- CC(C)CNC(=O)c1cccc(NC(=O)CC(C)C)c1
  93	-19	99	x
- COc1ccc(C(=O)N(c2ccccn2)C2CCCCC2)c(OC)c1
  105	5	100	7
- CCCCC(=O)Nc1ccccc1C#N
  100	-15	100	-12
- CC(C)N(C(=O)CSc1nnc(Cn2nnc3ccccc32)n1C)C(C)C
  102	-3	102	1
- C[C@]12CCC3C(CC[C@H]4CC(=O)CC[C@]34C)C1CCC2=O (some centres not stated)
  99	-15	100	-12
- O=c1onc(-c2cccc(Cl)c2)n1-c1ccccc1
  97	-8	97	-8
- CCOC(=O)Cn1c(=O)oc2cc(S(=O)(=O)N(CCN(C)C)Cc3ccccc3)ccc21
  103	13	101	-5

Next part:
Results follow in this order: Polio RdRp inh intensity	MenB inh	Polio RdRp inh	MbtI inh
- COCC(C)Nc1oc(-c2ccc(Cl)cc2)nc1C#N (configuration not stated)
  89	-28	104	110
- CCCCn1c(=O)[nH]c(=O)c2c(C(F)(F)F)cc(-c3ccc(OC)cc3)nc21
  96	-34	104	103
- COc1cc(C(=O)COC(=O)Cn2cnc3ccccc3c2=O)ccc1OC(F)F
  96	-1	99	5
- Cc1ccc(C)c(C(=O)CN2C(=O)NC3(CCc4ccccc43)C2=O)c1 (configuration not stated)
  97	-8	97	15
- CCN1CCN(C(=O)CC2OC(=O)c3ccccc32)CC1 (configuration not stated)
  104	-21	101	10
- Nc1ccc(-c2cc3ccccc3oc2=O)cc1
  107	-10	103	5
- S=C(NC1CCCCC1)N1CCC(C2C=NC=N2)CC1 (configuration not stated)
  99	-6	101	-17
- CN(C)N1C(=O)/C(=C/c2cccs2)SC1=Nc1ccccc1
  102	-39	100	7
- CC(=O)Oc1ccccc1C(=O)N1CCCc2ccccc21
  102	-22	102	-18
- COC(=O)Cn1c(O)c(N=NC(=O)C2COc3ccccc3O2)c2ccccc21 (configuration not stated)
  103	-74	99	-3
- c1cc(CNC2CCCCCC2)cs1
  104	-3	102	-13
- Cc1ccc(N=Cc2c[nH]c3ccccc23)c(C)c1
  112	-9	107	x
- Cn1cc(NC(=O)NCC2COc3ccccc3O2)c2ccccc2c1=O (configuration not stated)
  98	-27	103	9
- CC1(C)CC(=O)c2cc(OCC(=O)N3CCN(Cc4ccccc4)CC3)ccc2O1
  106	0	104	19
- CC(=O)Nc1c(OC(C)=O)c2ccccc2oc1=O
  103	13	100	-138
- O=c1[nH]cnc2onc(-c3ccc(F)cc3)c12
  99	-17	100	1
- CCOC(=O)c1nn(-c2ccccc2)c(=O)cc1OCC(=O)NCc1ccc2c(c1)OCO2
  85	-12	101	2
- COc1cccc(-c2noc(C3CCCN(S(=O)(=O)c4ccccc4F)C3)n2)c1 (configuration not stated)
  104	-73	104	-2
- CC(=O)N1CCCCC1c1cccnc1.O=[N+]([O-])O.[Ag] (configuration not stated)
  77*	-36	60*	x
- CCCc1cc(C(=O)Nc2sc3c(c2C#N)CCC(C(C)(C)C)C3)no1 (configuration not stated)
  101	-14	100	2

(next part)
Results follow in this order: Polio RdRp inh intensity	MenB inh	Polio RdRp inh	MbtI inh
- Fc1ccc(C(OCCN2CCN(CCCc3ccccc3)CC2)c2ccc(F)cc2)cc1
  101	1	100	-11
- S=c1[nH]nc(-c2ccco2)n1Cc1ccccc1
  104	-30	105	x
- Cc1ccc(NC(=O)C23CCC(C)(C(=O)C2)C3(C)C)cc1 (configuration not stated)
  103	5	101	-2
- CC[C@H](CO)NC(=O)[C@@H]1C=C2c3cccc4[nH]cc(c34)C[C@H]2N(C)C1
  102	2	98	-458
- COc1nnc(-c2ccc(N3CCOCC3)c(NS(=O)(=O)c3ccc(C)cc3)c2)c2ccccc12
  104	-14	104	-15
- Cc1ccc2c(c1)sc(=NC(=O)CN1C(=O)c3ccccc3C1=O)n2C
  103	-26	101	2
- Cc1cc(=O)n(CC(=O)NC(C)C)c2c1c(C)nn2-c1ccccc1
  103	-32	101	29
- Nc1nc2ccc(SC(F)F)cc2s1
  97	0	97	4
- O=C(COC(=O)c1ccccc1C(F)(F)F)Nc1c(F)cccc1F
  96	9	98	-26
- COc1ccc2c(C)nc(NC3=NC(c4ccccc4)CC(=O)N3)nc2c1 (configuration not stated)
  101	-22	99	82
- CCOc1ccc2c(=O)c(Oc3ccccc3Br)coc2c1
  102	-20	101	0
- CS(=O)(=O)Nc1ccc(C2=NN(S(C)(=O)=O)C(c3ccccc3F)C2)cc1 (configuration not stated)
  119	-4	109	106
- Cc1cc(C)c(C=C2C(=O)OC(C)(C)OC2=O)[nH]1
  108	i	104	16
- CCOc1ccc2[nH]c3nc(=S)[nH]nc3c2c1
  103	-29	100	-6
